From PubChem BioAssay
rRNA inh HTS: inhibitors of bacterial rRNA selective over humanized ribosomes. E. coli WT GFP vs humanized-ribosome RFP mutants, fluorescence, 24 h; hits give low values; DMSO median 0, no signal -100. GFP signal change (wild-type ribosome), % (no concentration beside the values). actives 1.6% (n = 350,000). AID 720706;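 active means significant combined selectivity score with lowered wild-type GFP, culture density cut under 30%, mutant RFP and density less affected; inactive means any of these conditions unmet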; further: one replicate is shown; some compounds called inactive have numbers as strong as hits
AF4-AF9 inh: blocks AF4 peptide binding to human AF9; actives 0.47% (n = 350,000); P42568; AlphaScreen, biotin-AF4 peptide binding to FLAG-AF9; inhibition, % at 10 µM; AID 651704;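 active means every replicate reaching a set inhibition limit, whatever the replicate mean, cut at about 25% in these data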;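 further: 0% = plate neutral control median and 100% = total signal loss; the record names both 10 and 1 µM as test concentration; the first replicate is given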
Target sequence (P42568 whole entry, looked up): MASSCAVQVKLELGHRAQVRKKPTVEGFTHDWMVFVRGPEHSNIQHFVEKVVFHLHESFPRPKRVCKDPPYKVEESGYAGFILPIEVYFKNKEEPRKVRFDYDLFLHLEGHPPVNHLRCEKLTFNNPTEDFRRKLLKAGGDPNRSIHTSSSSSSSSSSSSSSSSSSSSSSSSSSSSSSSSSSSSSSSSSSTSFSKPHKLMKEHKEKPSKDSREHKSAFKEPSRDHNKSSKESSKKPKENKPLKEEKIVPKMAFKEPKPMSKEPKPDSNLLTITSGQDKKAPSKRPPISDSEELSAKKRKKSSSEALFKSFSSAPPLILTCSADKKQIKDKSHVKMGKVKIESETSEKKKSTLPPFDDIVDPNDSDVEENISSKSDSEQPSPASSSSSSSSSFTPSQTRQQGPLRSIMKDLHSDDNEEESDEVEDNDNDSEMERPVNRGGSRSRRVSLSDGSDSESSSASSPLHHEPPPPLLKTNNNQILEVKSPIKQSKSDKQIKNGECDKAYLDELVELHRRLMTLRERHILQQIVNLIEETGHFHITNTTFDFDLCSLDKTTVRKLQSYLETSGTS
rRNA inh HTS OD600: further read-out of rRNA inh HTS, marked with its call; OD600 change, %; measured here: OD600 growth;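 optical density of the mix in the first replicate; 0 = DMSO median and -100 = no signal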
rRNA inh HTS RFP: recorded beside rRNA inh HTS, whose call it bears; RFP signal change, %; measured here: RFP humanized mutant strains;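 first replicate; 0 = DMSO median and -100 = no signal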
Numbers without * were called inactive.

entry	mol	rRNA inh HTS	rRNA inh HTS OD600
1	C[C@H](CO)N1C[C@H](C)[C@@H](CN(C)Cc2ccncc2)Oc2ccc(NC(=O)C3CCCCC3)cc2C1=O	-1	2
2	Cc1cnc(C(=O)N(c2ccccc2)C(c2ccccc2)c2nc3ccccc3[nH]2)cn1 (configuration not stated)	-13	-6
3	O=C(c1ccc2c(c1)OCO2)N1CC(=O)N2[C@H](C1)[C@H](c1ccc(C#Cc3ccccc3)cc1)[C@@H]2CO	2	6
4	CO[C@H]1CN(C)C(=O)c2cc(NS(C)(=O)=O)ccc2OC[C@H](C)N(C(=O)C2CCCC2)C[C@@H]1C	2	-1
5	COc1ccc(S(=O)(=O)N(C)C[C@H]2Oc3ccc(NC(=O)NC4CCCCC4)cc3CC(=O)N([C@@H](C)CO)C[C@@H]2C)cc1	-5	-10
6	COc1ccc2c3c([nH]c2c1)[C@@H](CO)N(Cc1ccccc1)CC31CN(C(=O)NC(C)C)C1	4	5
7	C[C@H](CO)N1C[C@H](C)[C@H](CN(C)CC2CC2)Oc2ccc(NC(=O)Nc3cccc4ccccc34)cc2CC1=O	3	-4
8	CO[C@@H]1CN(C)C(=O)c2cc(NC(=O)Nc3cccc(Cl)c3)ccc2OC[C@@H](C)N(C)C[C@@H]1C	-3	-11

entry	rRNA inh HTS RFP	AF4-AF9 inh
1	-0.2	-0.5
2	1.8	1.1
3	23	-0.3
4	4.5	-2.1
5	3.0	-1.0
6	-2.1	0.1
7	7.9	6.6
8	7.1	8.0

Next structures follow:
entry	mol	rRNA inh HTS	rRNA inh HTS OD600
9	C[C@@H]1CN([C@H](C)CO)C(=O)c2cc(NC(=O)C3CC3)ccc2O[C@@H]1CN(C)Cc1ccc(Cl)c(Cl)c1	-9	-31
10	CC1(C(=O)NS(=O)(=O)C2CC2)CCCN(C(=O)c2ccccc2)C1 (configuration not stated)	4	13
11	C[C@@H](NC(=O)N(C)C[C@@H]1OCc2ccccc2-c2c(n(C)c3ccccc23)C(=O)N([C@@H](C)CO)C[C@@H]1C)c1ccccc1	2	4
12	C/C=C/c1cnc2c(c1)C(=O)N([C@@H](C)CO)C[C@H](C)[C@@H](CN(C)C(=O)Cc1ccccc1)O2	1	-2
13	O=C(c1cnccn1)N1CC(=O)N2[C@H](CO)[C@@H](c3ccc(-c4cccc(F)c4)cc3)[C@H]2C1	0	20
14	C[C@H]1CN([C@@H](C)CO)C(=O)Cc2cc(NS(=O)(=O)c3cn(C)cn3)ccc2O[C@H]1CN(C)C(=O)Nc1ccccc1	1	4
15	CCC(=O)N(C)C[C@H]1Oc2cc(-c3ccc(C)cc3)ccc2S(=O)(=O)N([C@@H](C)CO)C[C@H]1C	3	2
16	COc1cc(CN2C[C@@H](CO)O[C@@H](n3cnc4c(NC(C)C)ncnc43)C2)cc(OC)c1OC	6	-9

entry	rRNA inh HTS RFP	AF4-AF9 inh
9	-2.1	3.7
10	-1.0	-2.6
11	-3.2	-1.2
12	-3.9	-1.2
13	1.3	3.3
14	-1.1	-8.7
15	-4.3	-0.1
16	2.5	-3.9

(list continues)
entry	mol	rRNA inh HTS	rRNA inh HTS OD600
17	COc1ccc(NC(=O)Nc2ccc3c(c2)C(=O)N([C@H](C)CO)C[C@@H](C)[C@H](CN(C)S(=O)(=O)c2ccc(C)cc2)OCCCC[C@@H](C)O3)cc1	1	7
18	C[C@H](CO)N1C[C@H](C)[C@H](CN(C)C(=O)Nc2ccc3c(c2)OCO3)Oc2c(NS(=O)(=O)c3ccc(F)cc3)cccc2C1=O	-6	-3
19	Cc1noc(C)c1S(=O)(=O)Nc1cccc2c1O[C@@H](CN(C)C(=O)NC1CCCCC1)[C@@H](C)CN([C@H](C)CO)C2=O	-5	-4
20	Cc1ccc(NC(=O)CSCC(=O)Nc2cc(S(=O)(=O)N3CCOCC3)ccc2OC(C)C)cc1	-7	-8
21	CCC(=O)N1CC2(C1)[C@H](c1ccc(-c3ccccc3C)cc1)[C@H](CO)N2C(=O)CC	-2	3
22	C[C@@H]1CN([C@@H](C)CO)C(=O)c2cc(C3=CCCCC3)cnc2O[C@H]1CN(C)C(=O)Cc1ccncc1	1	4
23	CCC(c1nnnn1-c1ccc2c(c1)OCCO2)N1CCN(c2ccc(C(F)(F)F)cc2[N+](=O)[O-])CC1 (configuration not stated)	12	22
24	COc1ccc(-c2cnc3c(c2)C(=O)N([C@H](C)CO)C[C@H](C)[C@H](CN(C)S(=O)(=O)c2cn(C)cn2)O3)cc1	5	17

entry	rRNA inh HTS RFP	AF4-AF9 inh
17	-3.5	-1.8
18	1.0	2.0
19	1.6	-0.7
20	2.8	2.5
21	1.1	-0.8
22	-1.5	1.9
23	1.4	5.7
24	-2.2	-3.2

(list continues)
entry	mol	rRNA inh HTS	rRNA inh HTS OD600
25	CO[C@H]1CN(C)C(=O)c2ccc(NS(=O)(=O)c3ccccc3)cc2OC[C@H](C)N(Cc2ccccn2)C[C@@H]1C	1	0
26	COc1cccc(C(=O)N2CCC[C@@H]2C(=O)N2CCC[C@H]2C(=O)NCc2ccccc2)c1	5	5
27	C[C@@H]1CCCCO[C@H](CN(C)C(=O)c2ccncc2)[C@H](C)CN([C@H](C)CO)C(=O)c2cc(NS(=O)(=O)c3ccc(Cl)cc3)ccc2O1	-2	-3
28	COCCNc1ncnc2c1ncn2[C@H]1CN(Cc2ccco2)C[C@@H](CO)O1	14	20
29	C[C@@H]1CN([C@@H](C)CO)S(=O)(=O)c2ccc(/C=C/c3ccccc3)cc2O[C@H]1CN(C)Cc1cncnc1	-10	-13
30	COc1ccc(S(=O)(=O)N2CCCCN3[C@H](C2)[C@H](c2ccc(-c4cccnc4)cc2)[C@@H]3CO)cc1	-21	-35
31	O=C(C[C@H]1C=C[C@H](NC(=O)Nc2ccccc2F)[C@H](CO)O1)NCc1ccccc1	-7	-8
32	O=C(C[C@@H]1CC[C@H]2[C@@H](COC[C@H](O)CN2C(=O)Nc2ccc(F)cc2)O1)NCCc1ccccc1	-5	-1

entry	rRNA inh HTS RFP	AF4-AF9 inh
25	0.0	1.1
26	0.5	-1.0
27	0.5	-5.0
28	0.9	-5.6
29	4.8	14
30	16	-2.0
31	0.7	-3.4
32	-1.2	-2.8

Other records
entry	mol	rRNA inh HTS	rRNA inh HTS OD600
33	COCC(=O)NC[C@@H]1[C@@H](c2ccccc2)[C@@H](CO)N1C(=O)c1ccccc1	-1	-4
34	CO[C@@H]1CN(C)C(=O)c2cc(NC(=O)C3CCCCC3)ccc2OC[C@@H](C)NC[C@@H]1C	2	0
35	O=C(NC1CCCC1)C1C(c2ccc(C(F)(F)F)cc2)=Nc2ccccc2N1C(=O)c1ccccc1 (configuration not stated)	3	11
36	C[C@@H]1CN([C@@H](C)CO)S(=O)(=O)c2ccc(C#CC(C)(C)O)cc2O[C@@H]1CN(C)Cc1ccc(F)cc1	0	-4
37	C[C@@H]1CN([C@@H](C)CO)C(=O)c2ccccc2-c2ccccc2CO[C@@H]1CN(C)C	9	19
38	C[C@@H]1CCCCO[C@@H](CN(C)Cc2ccc(Cl)c(Cl)c2)[C@@H](C)CN([C@H](C)CO)C(=O)c2cc(NC(=O)c3ccccc3)ccc2O1	3	4
39	Cc1ccc(S(=O)(=O)Nc2ccc3c(c2)C(=O)N([C@H](C)CO)C[C@@H](C)[C@H](CN(C)C(=O)Nc2c(C)noc2C)OCCCC[C@@H](C)O3)cc1	-1	2
40	Cc1noc(C)c1NC(=O)Nc1ccc2c(c1)C(=O)N([C@@H](C)CO)C[C@@H](C)[C@@H](CN(C)C(=O)Nc1ccccc1)OCCCC[C@H](C)O2	-1	6

entry	rRNA inh HTS RFP	AF4-AF9 inh
33	-1.1	-1.7
34	-2.4	-1.7
35	-3.3	4.8
36	2.3	2.4
37	-5.0	-2.7
38	1.8	-1.1
39	2.0	-4.6
40	-1.7	-2.1

Continued.
entry	mol	rRNA inh HTS	rRNA inh HTS OD600
41	C[C@H](CO)N1C[C@H](C)[C@H](CN(C)Cc2ccc3c(c2)OCO3)Oc2ccc(N(C)C)cc2CC1=O	4	10
42	CN(C)C(=O)c1cccc(-c2ccccc2[C@@H]2[C@@H](C#N)N(C(=O)C3CCC3)[C@H]2CO)c1	-10	3
43	COc1cccc(S(=O)(=O)N2CC[C@@H]3[C@H](CO)Nc4ccc(C#Cc5cccnc5)cc4[C@@H]32)c1	-12	-21
44	CCOC(=O)[C@]12CCCC=C1N(Cc1ccco1)C(=O)[C@H](CC(=O)NCCCOC)C2	15	27
45	O=C(c1cc(C2CCCCN2C(=O)CCCc2ccccc2)on1)N1CCOCC1 (configuration not stated)	4	12
46	CC=Cc1ccc2n(c1=O)C[C@@H]1[C@@H](CO)[C@H](C(=O)NCC3CC3)[C@H]2N1CCC (mixture of isomers)	3	14
47	C[C@H]1CCCCO[C@H](CN(C)CC2CCCCC2)[C@@H](C)CN([C@@H](C)CO)C(=O)c2cc(NS(=O)(=O)c3cccs3)ccc2O1	0	-8
48	CC(C)NC(=O)N(C)C[C@@H]1Oc2c(NC(=O)Nc3cccc4ccccc34)cccc2C(=O)N([C@@H](C)CO)C[C@@H]1C	-7	-12

entry	rRNA inh HTS RFP	AF4-AF9 inh
41	0.0	2.2
42	-2.5	-0.9
43	-3.0	-0.6
44	4.5	-3.7
45	-1.2	2.6
46	-1.7	-0.2
47	3.6	14
48	2.3	1.7

The list goes on:
entry	mol	rRNA inh HTS	rRNA inh HTS OD600
49	O=C(C[C@H]1CC[C@H]2[C@@H](COC[C@@H](O)CN2C(=O)Nc2ccc(Cl)cc2)O1)NC1Cc2ccccc2C1	-54	-64
50	CN(C)C(=O)[C@@H]1[C@@H](CO)[C@@H]2Cn3c(ccc(-c4ccccc4F)c3=O)[C@@H]2N1C(=O)C1CC1	4	2
51	Oc1cccc(-c2ccc3nccn3c2)c1	-2	1
52	C[C@@H]1CN([C@H](C)CO)C(=O)c2cc(NC(=O)C3CCCCC3)ccc2O[C@@H](C)CCCCO[C@H]1CN(C)C(=O)C1CCCCC1	-4	1
53	NCC[C@@H]1CC[C@H](NC(=O)CCN2CCCCC2)[C@H](CO)O1	3	2
54	CCCCN1CC(COCc2ccccc2)Oc2cccc(Oc3ccc(F)cc3)c2S1(=O)=O (configuration not stated)	11	-5
55	C[C@@H]1CN([C@@H](C)CO)C(=O)c2cc(C#CC3(O)CCCC3)cnc2O[C@H]1CN(C)C(=O)C1CCC1	4	3
56	COc1cc(NC(=O)COc2ccc([N+](=O)[O-])cc2)ccc1NC(=O)c1ccco1	2	11

entry	rRNA inh HTS RFP	AF4-AF9 inh
49	-9.4	-9.4
50	-1.2	-2.3
51	3.9	-0.6
52	-0.3	-1.1
53	-2.5	11
54	1.6	-0.6
55	-1.4	-1.2
56	2.7	-11

New compounds follow
entry	mol	rRNA inh HTS	rRNA inh HTS OD600
57	C[C@@H]1CCCCO[C@@H](CN(C)C(=O)Nc2ccc(C(F)(F)F)cc2)[C@H](C)CN([C@@H](C)CO)C(=O)c2cc(NC(=O)c3ccncc3)ccc2O1	-1	-1
58	C[C@@H]1CN([C@H](C)CO)C(=O)Cc2cc(NS(=O)(=O)c3cn(C)cn3)ccc2O[C@@H]1CN(C)C(=O)Nc1ccc(F)cc1	5	6
59	CC(C)CC#Cc1ccc2c(c1)O[C@@H](CN(C)Cc1ccc3c(c1)OCO3)[C@@H](C)CN([C@@H](C)CO)S2(=O)=O	-3	0
60	COC(=O)[C@H]1[C@H](CO)[C@H]2Cn3c(ccc(-c4ccccc4)c3=O)[C@H]2N1CC1CCCCC1	-3	-42
61	C[C@@H]1CN([C@H](C)CO)C(=O)c2cccc(NS(=O)(=O)c3cccs3)c2O[C@H]1CN(C)C(=O)Nc1ccc2c(c1)OCO2	1	2
62	O=C(Nc1ccc(F)cc1)N[C@H]1CC[C@@H](CC(=O)N2CCCCC2)O[C@H]1CO	0	0
63	O=S(=O)(Cc1ccccc1)NCC[C@H]1CC[C@@H](NS(=O)(=O)c2ccccc2)[C@@H](CO)O1	1	1
64	C[C@H](CO)N1C[C@H](C)[C@H](CN(C)C(=O)CN2CCOCC2)Oc2cc(/C=C/c3ccccc3)ccc2S1(=O)=O	-2	-1
65	COc1ccc(S(=O)(=O)N(C)C[C@@H]2OCCCC[C@H](C)Oc3ccc(NC(=O)NC4CCCCC4)cc3C(=O)N([C@H](C)CO)C[C@H]2C)cc1	2	5

entry	rRNA inh HTS RFP	AF4-AF9 inh
57	-0.2	-1.7
58	-2.0	-2.9
59	-0.5	0.6
60	34	5.6
61	-0.6	-2.5
62	1.5	-13
63	-1.0	-0.1
64	2.2	5.3
65	2.0	2.1

Numbers 61–65 from above:
entry	mol	rRNA inh HTS	rRNA inh HTS OD600
61	C[C@@H]1CN([C@H](C)CO)C(=O)c2cccc(NS(=O)(=O)c3cccs3)c2O[C@H]1CN(C)C(=O)Nc1ccc2c(c1)OCO2	1	2
62	O=C(Nc1ccc(F)cc1)N[C@H]1CC[C@@H](CC(=O)N2CCCCC2)O[C@H]1CO	0	0
63	O=S(=O)(Cc1ccccc1)NCC[C@H]1CC[C@@H](NS(=O)(=O)c2ccccc2)[C@@H](CO)O1	1	1
64	C[C@H](CO)N1C[C@H](C)[C@H](CN(C)C(=O)CN2CCOCC2)Oc2cc(/C=C/c3ccccc3)ccc2S1(=O)=O	-2	-1
65	COc1ccc(S(=O)(=O)N(C)C[C@@H]2OCCCC[C@H](C)Oc3ccc(NC(=O)NC4CCCCC4)cc3C(=O)N([C@H](C)CO)C[C@H]2C)cc1	2	5

entry	rRNA inh HTS RFP	AF4-AF9 inh
61	-0.6	-2.5
62	1.5	-13
63	-1.0	-0.1
64	2.2	5.3
65	2.0	2.1

Not all compounds are listed (hit frequency here may not be typical).
